# Source: PubChem (National Center for Advancing Translational Sciences (NCATS))
# Menin-MLL FL inh: qHTS Assay for Inhibitors Targeting the Menin-MLL Interaction in MLL Related Leukemias: Competition With Fluorescein Labeled MLL-derived Peptide; 290,000 tested, under 10 active; FP activity change, % at 61.4 µM; Fluorescence polarization, fluorescein-MLL peptide displacement from menin; inconclusive = falling polarisation curve, or a change in total fluorescence; inactive = total fluorescence flat and polarisation flat or rising; no compound was filed as active; the % refers to the polarisation; negative = inhibition;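 note: % of control where 0% means no effect; inhibitors lower the polarisation; unlabelled MLL peptide was the positive control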
# Sfp inh: qHTS Assay for Inhibitors of Bacillus subtilis Sfp phosphopantetheinyl transferase (PPTase); 4'-phosphopantetheinyl transferase ffp (Bacillus subtilis), Q9F4F7; Biochemical Sfp PPTase activity, qHTS; Potency, µM, inactives show max response, negative = inhibition, hits mostly inhibitors; 310,000 compounds, 3.5% hits; AID 1490, 2009; active = well fitted inhibition curve with a large enough effect; inconclusive = small, poorly fitted or top-dose-only effect, or another doubt; inactive = no such curve, though single readings can be large or run the other way;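 note: the enzyme is Sfp with the accession as filed and its product quenches rhodamine fluorescence; potency is the fitted concentration of half-maximal effect; 0% = enzyme reaction without inhibitor and -100% = no enzyme wells; top concentration of the series not given in the record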
#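 Reaction rates are the 30-min fluorescence difference (ex 525, em 598 nm) in wells containing 15 nM Sfp, 5 uM rhodamine-CoA and 12.5 uM BHQ-2-YbbR at pH 7.6 with 10 mM MgCl2.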
# ClpP mod: qHTS Assay for Activators of ClpP; purified B. subtilis ClpP, FRET peptide cleavage, 20 min; ATP-dependent Clp protease proteolytic subunit (Bacillus subtilis (strain 168)), P80244; 340,000 compounds, 1.9% hits; Potency, µM (series often up to 57.5 µM), inactives show at the highest dose activity change, negative = active; active = well fitted falling curve with a large enough effect; inconclusive = small, poorly fitted or top-dose-only effect; inactive = no such curve, though single readings can be large or run the other way; note: potency is the fitted concentration of half-maximal effect; the source files actives as falling curves though it sought activators and does not explain the sign; nearly all actives have a fitted effect of over 65% in size; many hits overshoot -100%
# Target sequence (P80244 whole entry, looked up): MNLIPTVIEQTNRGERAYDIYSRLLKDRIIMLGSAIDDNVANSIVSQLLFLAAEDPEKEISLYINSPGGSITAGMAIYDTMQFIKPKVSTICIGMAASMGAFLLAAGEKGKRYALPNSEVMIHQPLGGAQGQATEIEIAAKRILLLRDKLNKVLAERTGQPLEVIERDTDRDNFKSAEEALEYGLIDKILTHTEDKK
#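 ClpP 10 microg/mL final, pH 8 Tris/KCl buffer with BSA, glycerol, Tween-20; compound pinned in; FRET-FV substrate; RT 20 min; Ex320/Em430; ΔFRET vs ADEP 5.8 microM, DMSO, no enzyme.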
# TRPML1 blocker: qHTS for Inhibitors of the Human Mucolipin Transient Receptor Potential 1 (TRPML1); Mucolipin-1 (Homo sapiens), Q9GZU1; TRPML1-inducible cells, Ca2+ dye fluorescence, FDSS; stronger effect = lower value; inhibition of EC80 agonist-evoked calcium signal; activity change, negative = inhibition, % (no concentration beside the values); 390,000 compounds, 0.02% hits; in the data active means activity change below about -50%; inconclusive means about -30% to -50%; inactive means above about -30%;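 note: stimulus is agonist 54-4 at its EC80 concentration; % is set by controls: 0 for no effect and ±100 for the full control effect; compound concentration not given in the record; the text of the record puts the active cut at -80%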
# Target sequence (Q9GZU1 whole entry, looked up): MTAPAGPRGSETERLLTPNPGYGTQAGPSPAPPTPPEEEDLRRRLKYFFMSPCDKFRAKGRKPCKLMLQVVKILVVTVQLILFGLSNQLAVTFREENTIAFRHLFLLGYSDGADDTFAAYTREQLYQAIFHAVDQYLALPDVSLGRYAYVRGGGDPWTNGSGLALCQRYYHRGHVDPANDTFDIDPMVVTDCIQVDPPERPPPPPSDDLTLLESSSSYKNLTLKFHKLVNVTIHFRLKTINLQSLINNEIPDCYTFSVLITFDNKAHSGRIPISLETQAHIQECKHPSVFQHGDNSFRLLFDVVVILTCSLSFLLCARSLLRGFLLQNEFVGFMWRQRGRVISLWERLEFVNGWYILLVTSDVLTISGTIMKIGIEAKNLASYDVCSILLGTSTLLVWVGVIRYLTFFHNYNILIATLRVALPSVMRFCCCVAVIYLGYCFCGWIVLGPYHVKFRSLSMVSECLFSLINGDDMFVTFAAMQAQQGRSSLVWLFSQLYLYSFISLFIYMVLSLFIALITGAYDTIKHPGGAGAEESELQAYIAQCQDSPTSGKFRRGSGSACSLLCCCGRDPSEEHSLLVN
#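 Calcium fluorescence in TRPML1-DL cells induced overnight with Tet: a 110 s read after compound pin addition, then a 110 s antagonist read after challenge with 54-4 at 4 uM final (EC80).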
# gsp ag: qHTS for Agonist of gsp, the Etiologic Mutation Responsible for Fibrous Dysplasia/McCune-Albright Syndrome: qHTS. gsp mutant cells, cAMP HTRF, 30 min; control for the full effect not named in the record. Potency, µM (highest dose often 76.9 µM), inactives show at the top dose activation (cAMP increase), actives largely listed as activators. 340,000 compounds, 0.13% hits. AID 624287, 2012; active = well fitted activation curve with a large enough effect; inconclusive = small, poorly fitted or top-dose-only effect, or another doubt; inactive = no such curve, though single readings can be large or run the other way; cell line not stated here;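 note: phosphodiesterase inhibitor Ro 20-1724 added with compounds to block cAMP breakdown; potency is the fitted concentration of half-maximal effect; nearly all actives have a fitted effect of over 60% in size; about a fifth of the inactives were tested at one dose only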
#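 Cells stably selected in G418 were plated at 2000/well, grown 16-24 hr, then given compounds in DMSO with the PDE inhibitor […] (300 uM solution added) for 30 min at 37C; cAMP was read by HTRF.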
# gsp antag: qHTS for Antagonists of gsp, the Etiologic Mutation Responsible for Fibrous Dysplasia/McCune-Albright Syndrome: qHTS. Potency, µM (titrated, usually from 76.9 µM), for the others: top-dose activity change, negative = inhibition, usual class: inhibitors. 340,000 compounds, 0.4% hits. gsp-mutant cells, cAMP HTRF, 30 min; control for the full effect not named in the record. AID 624288, 2012; active = falling curve of any shape with a large fitted effect; inconclusive = falling curve, mostly with a smaller effect; inactive = flat or rising curve; cell line not stated here;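 note: intracellular cAMP measured with PDE inhibitor Ro 20-1724 present during compound exposure; potency is the fitted concentration of half-maximal effect; % is set by controls: 0 for no effect and ±100 for the full control effect; nearly all actives have a fitted effect of over 65% in size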
#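 Measurement of cellular cAMP by homogeneous time-resolved fluorescence following a 30 min compound exposure at 37C. The PDE inhibitor […] was present throughout; the assay buffer was DPBS with 0.05% BSA and 0.005% Tween 20.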
# TRPV1 PAM: HTS Assay for Compounds that Act as Potentiators of the Vanilloid Receptor 1; Transient receptor potential cation channel subfamily V member 1 (Homo sapiens), Q8NER1; TRPV1-expressing cells, Fluo-8 calcium influx, capsaicin EC20 potentiation; host cell line not named in the record; control for the full effect not named in the record; potentiation, % at 8.33 µM; 320,000 compounds, 0.02% hits; active means potentiation above 80%; inconclusive means 30% to 80%; inactive means below 30%; note: 0% is about no effect
#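 TRPV1-expressing cells were cultured overnight at 35.5C and loaded with Fluo-8 calcium dye for 40 to 90 min at room temperature. After a 10 s baseline, compound was added and calcium influx was read kinetically for 3 min (ex 480/em 520 nm).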
# An asterisk follows results filed as active; ? = inconclusive; . = not tested or not shown; [ ] = dose if it differs, or a comment.
# Letters: A = Menin-MLL FL inh; B = Sfp inh; C = ClpP mod; D = TRPML1 blocker; E = gsp ag; F = gsp antag; G = TRPV1 PAM
1: CCOc1ccccc1NC(=O)N1CCCC1C(=O)Nc1ccc(NC(C)=O)cc1 (stereo not given)
  A = 2.2; B = 19%; C = 0.6%; D = 7; E = -40%[inhibitor]; F = 8%; G = 3
2: CC(=O)NN1C(=O)c2ccc3c4c(ccc(c24)C1=O)C(=O)N(NC(C)=O)C3=O
  A = -12; B = 7%; C = -2.6%; D = 7; E = ?; F = -7%; G = 3
3: C=CCSc1nc(O)c(C2OC(=O)c3c2ccc(OC)c3OC)c(=O)n1-c1ccccc1 (stereo not given)
  A = 7.0; B = 14%; C = -14%; D = 38; E = 13%; F = -2%; G = 2
4: CCc1ccccc1N1C(=O)[C@@H]2Cc3ccccc3CN2C1=O
  A = -1.3; B = 21%; C = 0.8%; D = 25; E = -20%; F = -5%; G = -6
5: CC(C)(C)OC(=O)N1CCC(CNC(=O)c2ccc(F)cc2F)CC1
  A = 4.4; B = 21%; C = .; D = 24; E = 3%[15.4 µM]; F = 5%; G = -15
6: CC(C)(C)NS(=O)(=O)c1ccc2[nH]c3c(c2c1)CCCCC3
  A = -1.9; B = 7%; C = -0.7%; D = 5; E = 9%[15.4 µM]; F = -1%; G = 7
7: Cc1ccnc(NC(=O)CCC(=O)N(CC(=O)NCc2ccccc2)c2ccc3c(c2)OCO3)c1
  A = -3.9; B = 0%; C = -0.3%; D = 29; E = -15%; F = 0%; G = 14
8: O=C(O)CCCc1nc(-c2ccccc2)no1
  A = 0.3; B = -3%; C = -4.2%; D = -4; E = 10%; F = -4%; G = -11
9: CCOc1ccc2nc(NC(=O)C3(C)CC3(Br)Br)sc2c1 (stereo not given)
  A = .; B = .; C = -3.1%; D = -19; E = 4%; F = ?; G = .
10: Cc1ccccc1C(=O)N1CCN(c2ccccn2)CC1
  A = -1.2; B = -5%; C = ?; D = 21; E = -23%; F = 8%; G = 2

# Further compounds
# Letters: A = Menin-MLL FL inh; B = Sfp inh; C = ClpP mod; D = TRPML1 blocker; E = gsp ag; F = gsp antag; G = TRPV1 PAM
11: O=C(Nc1ccc(-c2ccc3nncn3n2)cc1)C1CCCC1
  A = -3.7; B = -1%; C = .; D = -2; E = ?; F = -4%; G = -6
12: Cc1cccc2[nH]c(CN(C)Cc3nc(CC4CC4)no3)nc12
  A = -0.1; B = 8%; C = .; D = 7; E = -41%[inhibitor]; F = 2%; G = -11
13: COc1ccc(-n2nc(C(N)=O)nc2-c2ccccc2)cc1
  A = 1.2; B = 12%; C = -0.6%; D = 10; E = -4%[15.4 µM]; F = 0%; G = -1
14: CCCc1c(C)nc2scc(-c3ccc(Cl)cc3)n2c1=O
  A = .; B = .; C = -7.0%; D = -1; E = 4%; F = .; G = .
15: CS(=O)(=O)N(CC(=O)NCc1ccncc1)Cc1ccc(Cl)cc1
  A = 1.5; B = 22%; C = -1.8%; D = -5; E = ?; F = 10%; G = 4
16: CC(NC(=O)COC(=O)/C=C/c1ccc([N+](=O)[O-])cc1)c1ccccc1 (stereo not given)
  A = 6.2; B = 14%; C = 0.9%; D = -7; E = -14%; F = -9%; G = 10
17: O=Cc1ccc(Oc2cc(-c3ccccc3)nc(-c3ccccc3)n2)cc1
  A = 1.7; B = ?; C = -1.2%; D = 5; E = -16%[15.4 µM]; F = 4%; G = -5
18: CCn1c(SCC(=O)Nc2cccc(NC(=O)c3ccco3)c2)nnc1-c1cccs1
  A = 1.0; B = 15%; C = -4.1%; D = 7; E = -33%[inhibitor]; F = -1%[15.4 µM]; G = 6
19: Cn1c(=O)c2c(nc(NCCc3ccccc3)n2Cc2ccc(F)cc2)n(C)c1=O
  A = -4.5; B = -12%; C = 0.7%; D = 2; E = 14%; F = -10%; G = 11
20: O=c1cc(O)nc(SCc2ccc(Cl)cc2)[nH]1
  A = 6.5; B = 14%; C = -3.1%; D = 2; E = 27%; F = -16%; G = 11

# Shown with values under each structure: entries from further up
# Every second line gives: Menin-MLL FL inh, Sfp inh, ClpP mod, TRPML1 blocker, gsp ag, gsp antag, TRPV1 PAM
6) CC(C)(C)NS(=O)(=O)c1ccc2[nH]c3c(c2c1)CCCCC3
→ -1.9, 7%, -0.7%, 5, 9%[15.4 µM], -1%, 7
7) Cc1ccnc(NC(=O)CCC(=O)N(CC(=O)NCc2ccccc2)c2ccc3c(c2)OCO3)c1
→ -3.9, 0%, -0.3%, 29, -15%, 0%, 14
8) O=C(O)CCCc1nc(-c2ccccc2)no1
→ 0.3, -3%, -4.2%, -4, 10%, -4%, -11
9) CCOc1ccc2nc(NC(=O)C3(C)CC3(Br)Br)sc2c1 (stereo not given)
→ ., ., -3.1%, -19, 4%, ?, .
10) Cc1ccccc1C(=O)N1CCN(c2ccccn2)CC1
→ -1.2, -5%, ?, 21, -23%, 8%, 2
11) O=C(Nc1ccc(-c2ccc3nncn3n2)cc1)C1CCCC1
→ -3.7, -1%, ., -2, ?, -4%, -6
12) Cc1cccc2[nH]c(CN(C)Cc3nc(CC4CC4)no3)nc12
→ -0.1, 8%, ., 7, -41%[inhibitor], 2%, -11
13) COc1ccc(-n2nc(C(N)=O)nc2-c2ccccc2)cc1
→ 1.2, 12%, -0.6%, 10, -4%[15.4 µM], 0%, -1
14) CCCc1c(C)nc2scc(-c3ccc(Cl)cc3)n2c1=O
→ ., ., -7.0%, -1, 4%, ., .
15) CS(=O)(=O)N(CC(=O)NCc1ccncc1)Cc1ccc(Cl)cc1
→ 1.5, 22%, -1.8%, -5, ?, 10%, 4
16) CC(NC(=O)COC(=O)/C=C/c1ccc([N+](=O)[O-])cc1)c1ccccc1 (stereo not given)
→ 6.2, 14%, 0.9%, -7, -14%, -9%, 10
17) O=Cc1ccc(Oc2cc(-c3ccccc3)nc(-c3ccccc3)n2)cc1
→ 1.7, ?, -1.2%, 5, -16%[15.4 µM], 4%, -5

# Other records
# Letters: A = Menin-MLL FL inh; B = Sfp inh; C = ClpP mod; D = TRPML1 blocker; E = gsp ag; F = gsp antag; G = TRPV1 PAM
21: Cc1cccc(C(=O)Nc2ccc(NC(=O)c3ccccc3)cc2)c1
  A = -4.0; B = 14%; C = .; D = -2; E = -55%[inhibitor]; F = ?; G = -11
22: Cc1ccc(C)c(NC(=S)N2CCCC2)c1
  A = 0.5; B = -8%; C = 0.1%; D = 9; E = -26%; F = 16%; G = 5
23: CC(C)Cc1nnc(NC(=O)CCC(=O)N2CCN(Cc3ccc(Cl)cc3)CC2)s1
  A = 6.8; B = 9%; C = -0.2%; D = 9; E = -30%[inhibitor]; F = -7%; G = 0
24: CC(C)(C)c1cnnn1-c1ccc(-c2csc(N)n2)cc1
  A = 6.0; B = -16%; C = -4.2%; D = 16; E = 1%; F = -17%; G = 16
25: CC(NC(=O)Cn1c(=O)[nH]c2ccsc2c1=O)C12CC3CC(CC(C3)C1)C2 (stereo not given)
  A = 0.5; B = -21%; C = 2.8%; D = -3; E = -5%; F = -10%; G = 28
26: CC(C)c1cccc(C(C)C)c1OCCCCN1CCCC1
  A = 0.9; B = 15%; C = 0.9%; D = -3; E = ?; F = 2%; G = -2
27: C=CCn1c(=S)[nH]c2scc(-c3cccs3)c2c1=O
  A = 8.2; B = 11%; C = 0.6%; D = -9; E = ?; F = -20%; G = 16
28: CC1=C(C(=O)Nc2ccccc2)C2(CCCCC2)C(C#N)=C(S)N1
  A = 1.0; B = 32µM*; C = -3.0%; D = 18; E = -1%; F = -10%; G = 9
29: O=C(CCc1nc2ccccc2c(=O)[nH]1)NNC(=O)c1cccc(Cl)c1
  A = .; B = .; C = .; D = -5; E = -9%[15.4 µM]; F = 6%; G = -6
30: CC(C)C(=O)NC(=S)N(Cc1ccccc1)Cc1ccccc1
  A = 1.9; B = 15%; C = 1.8%; D = ?; E = -88%[inhibitor]; F = -10%; G = -12
